Compound activity deposited in PubChem BioAssay by National Center for Advancing Translational Sciences (NCATS).
2A Renilla = lowers the Renilla signal of an FMDV 2A StopGo reporter | Potency, µM (series often up to 57.5 µM), for inactives: top-dose signal change, negative = less light | hit rate 0.32% among 120,000 | HEK cells with a luciferase reporter of 2A StopGo recoding | AID 1745857; active means well fitted falling curve with a large enough effect; inconclusive means small, poorly fitted or top-dose-only effect; inactive means no such curve, though single readings can be large or run the other way; further: nearly all actives have a fitted effect of over 55% in size; overnight with compound
StopGo FLuc = FMDV 2A StopGo reporter, firefly signal | HEK cells with a luciferase reporter of 2A StopGo recoding | Potency, µM (highest dose often 57.5 µM), without a hit: at the top dose signal change, negative = less light | hit rate 0.23% among 120,000 | AID 1745856; active = well fitted falling curve with a large enough effect; inconclusive = small, poorly fitted or top-dose-only effect; inactive = no such curve, though single readings can be large or run the other way; further: nearly all actives have a fitted effect of over 60% in size; overnight with compound
Active calls of the source: *; ? = inconclusive; & = joins results of further samples; [ ] = another dose, or the depositor's remark. On the % scale 0 is the no-effect control and ±100 the full control effect; potency means the concentration at half of the fitted maximal effect.

canonical_smiles	2A Renilla	StopGo FLuc
CC(c1ccc(S(C)(=O)=O)cc1)N(C)S(=O)(=O)c1ccc(Cl)c(Cl)c1 (stereo not given)	6%	4%
CN(c1ccccc1)S(=O)(=O)c1cccc(NC(=O)COC(=O)c2cc(=O)c3ccccc3o2)c1	-5%	-8%
COc1ccc(-c2cnc(NC(=O)NCCc3ccccc3)n2C)cc1	20%	0%
CCOc1ccc(NC(=O)COc2ccccc2C)c2cccnc12	?	?
Cc1ncc(-c2ccc(C)c(S(=O)(=O)N3CCN(c4cccc(C(F)(F)F)c4)CC3)c2)o1	11%	-9%
CC(=O)[C@@]1(O)CC[C@H]2[C@@H]3C[C@H](C)C4=CC(=O)CC[C@]4(C)[C@H]3CC[C@@]21C	-9%	-25%
Cc1ccccc1Nc1nc(NC2CCCC2)nc2c1cnn2C	37%[activator]	-1%
CCCCCCc1ccc(C(=O)NNC(=O)c2ccccc2Cl)cc1	45%[activator]	65%[activator]
Cc1cn2c(=O)c(S(=O)(=O)NCc3ccc(F)cc3)c(C)nc2s1	3%	-24%
COc1cc(NC(=O)C(CCS(C)(=O)=O)N2Cc3ccccc3C2=O)cc(OC)c1OC (stereo not given)	-10%	-7%
CCOC(=O)c1c(C)[nH]c(CCC(=O)Nc2ccc(Cl)cc2C)c1C	8%	-11%
COc1cc(OC)c(NC(=O)c2ccc(-n3cnc4cccnc43)cc2)cc1Cl	-8%	1%
CC(=O)CC(=O)Nc1ccccc1C#N	4%	-1%
CCc1ccc(NC(=O)Cn2c(=O)n(Cc3ccco3)c(=O)c3oc4ccccc4c32)cc1	-6%	-19%
CCCCCCn1nc(C(=O)Nc2cccc(S(=O)(=O)N3CCOCC3)c2)c2ccccc2c1=O	24%	17%
CCOC(=O)C1CCN(C(=O)CSCc2nc(-c3ccc(OCC)cc3)oc2C)CC1	?	?
COc1ccc(OC)c(NC(=O)c2c(NCc3ccc(N(C)C)cc3)sc3c2CCCC3)c1	?	1%
COc1ccc(-c2csc3nc(-c4ccccc4C)oc(=O)c23)cc1OC	-11%	-10%
Cc1sc2ncnc(SCC(=O)Nc3ccc(CN4CCCC4)cc3)c2c1C	-8%	-8%
COc1ccccc1N1CCN(c2ncnc3c2c(-c2ccccc2)cn3-c2cccc(C)c2)CC1	-7%	-6%
N#C/C(=C\c1cccn1-c1ccccc1)C(=O)N1CCOCC1	13%	8%
CCN(CC)CCCOc1ccccc1-c1ccccc1	-16%	-6%
CCc1nnc(SCC(=O)Nc2ccc(Cl)cc2Cl)n1-n1cccc1	-17%	-14%
Cc1ccc(CNC(=O)Cn2nc(C)n3cccc3c2=O)cc1	-18%	-15%
Cc1cc(C(=O)CSc2nnc(C)n2Cc2ccccc2)c(C)n1Cc1ccc(F)cc1	160%[activator]	12%
Fc1ccc(-n2ncc3c(N4CCN(c5ccccc5F)CC4)ncnc32)cc1	-11%	-3%
O=C(Cn1cc(/C=C2\NC(=O)N(Cc3ccc([N+](=O)[O-])cc3)C2=O)c2ccccc21)N1CCOCC1	-2%	-5%
CCc1ccc(Cn2c(CNS(=O)(=O)c3ccc(Cl)s3)nc3cccnc32)cc1	166%[activator]	-3%
O=C(Nc1cccnc1Oc1ccccc1)c1cc(F)cc(F)c1	5%	-2%
Cc1cccc(C)c1NC(=O)CNC(=O)c1nccnc1N	-14%	10%

Continued:
canonical_smiles	2A Renilla	StopGo FLuc
COc1ccc2c(C)c(CC(=O)NCc3ccccc3)c(=O)oc2c1OC	3%	12%
Cc1ccc(NC(=O)C2CC3CCCC(C2)C3=O)cc1 (stereo not given)	5%	72%[activator]
COC(=O)C1=C(C(=O)OC)SC(=C(Cl)C(=S)Oc2ccccc2)S1	-2%	0%
COc1ccc(C(=O)N2N=C(C)CC2(O)C(F)(F)F)cc1OC (stereo not given)	-4%	3%
O=C(/C=C/c1ccccc1)O/N=C1\CCCc2oc3c(c21)CCCC3	11%	13%
Cc1cc(=O)n2nc(N(C)CC(=O)NCc3cccc(Br)c3)sc2n1	-1%	-12%
CCc1ccc2ncc3c(-c4ccc(F)cc4)nn(CC(=O)NC4CCCCC4)c3c2c1	-5%	-6%
COC(=O)C1=C(C)NC(=O)C1(NC(=O)c1ccc(Cl)cc1)C(F)(F)F (stereo not given)	5%&-8%	12%&-10%
COc1ccccc1CNC(=O)Cc1csc2nc(-c3ccc(Cl)cc3)cn12	-11%	27%
CCCc1cc(C(=O)OC)c(NC(=O)Cc2c(Cl)cccc2Cl)s1	29%	24%
Cc1ccc(N2CC(NC(=O)c3ccco3)CC2=O)cc1 (stereo not given)	0%	-12%
COc1ccc(-c2nc3sc(CCNC(=O)c4cc(OC)c(OC)c(OC)c4)c(C)n3n2)cc1	-6%	374%[activator]
COc1ccccc1Nc1nc(C)nc(N)c1S(=O)(=O)c1ccccc1	68%[activator]	3%
CCc1ccc(C(=O)C(C)OC(=O)c2nn(C)c(=O)c3ccccc23)cc1 (stereo not given)	5%	-7%
Cc1ccccc1NC1(c2nnnn2-c2ccccc2C)CCCC1	63%[activator]	8%
COc1ccc(Cl)cc1NC(=O)Cn1c(=O)n(CCCC(=O)NCCc2ccc(OC)c(OC)c2)c(=O)c2ccccc21	25%	0%
Cc1ccc(-c2nc3cc(NC(=O)c4cc5ccccc5o4)ccc3o2)cc1	-1%	18%
Cc1ccc(NC(=O)c2oc3ccc(S(=O)(=O)N4CCC5(CC4)OCCO5)cc3c2C)c(C)c1	?	?
CCC(=O)N1CCc2cc(S(=O)(=O)CCC(=O)NCc3ccc(F)cc3)ccc21	63%[activator]	52%[activator]
COc1cc(C(=O)Nc2ccc(-c3cc(C(F)(F)F)nn3-c3ccccc3)cc2)cc(OC)c1OC	14%	-4%
Cc1cc(C)cc(NC(=O)C2CCCN2S(=O)(=O)c2cccc3nsnc23)c1 (stereo not given)	13%&6%	-3%&-12%
CCn1cc(C(=O)NCCc2ccc(OC)c(OC)c2)c(=O)c2cc(S(=O)(=O)N3CCc4ccccc4C3)ccc21	28%	23%
CCCCC12CN3CC(C)(CN(C1)C3c1c[nH]c3ccccc13)C2=O (stereo not given)	71%[activator]	77%[activator]
CC(=O)Nc1ccc(NC(=O)c2cccc3c2ccn3C)cc1	3%	111%[activator]
COC(=O)CCCn1c(-c2ccc(C)cc2)c(C)n2c3c(=O)n(C)c(=O)n(C)c3nc12	-1%	6%
O=c1oc2ccc(Br)cc2cc1-c1nc(-c2ccccc2)cs1	-15%	-7%
O=C(Nc1ccccc1Cl)c1ccc(-c2ccccc2)cc1	13%	199%[activator]
Cc1cccc(C)c1NC(=O)Cn1c(=O)n(CC2CCC(C(=O)NCCc3ccccc3)CC2)c(=O)c2ccccc21 (stereo not given)	-10%	-11%
Cc1cc(-c2ccc(C)c(S(=O)(=O)NCCc3ccccc3)c2)on1	1%	7%
N#Cc1nc(-c2ccco2)oc1N1CCN(CC(=O)Nc2ccccc2-c2ccccc2)CC1	16%	0%

3 entries out of the list, sorted by count of non-hydrogen atoms, highest first:
canonical_smiles	2A Renilla	StopGo FLuc
Cc1cc(C)cc(NC(=O)C2CCCN2S(=O)(=O)c2cccc3nsnc23)c1 (stereo not given)	13%&6%	-3%&-12%
O=c1oc2ccc(Br)cc2cc1-c1nc(-c2ccccc2)cs1	-15%	-7%
Cc1ccc(NC(=O)C2CC3CCCC(C2)C3=O)cc1 (stereo not given)	5%	72%[activator]

Remaining list, next part
canonical_smiles	2A Renilla	StopGo FLuc
COC(=O)CCNC(=O)c1ccc2c(c1)NC(=O)CS2	0%	19%
COC(=O)c1cc(S(=O)(=O)Nc2ccccc2F)c[nH]1	-14%	-6%
CN(C)CCCNCc1ccco1	-17%	-14%
COc1ccc(OC)c(-c2noc(N3CCN(c4ccc(C(C)=O)cc4)CC3)n2)c1	3%	29%
COc1ccc(NC(=O)Nc2cc(-c3cn4cccnc4n3)ccc2OC)cc1	12%&2%	52%&60%[activator]
CC(C)CN(C(=O)c1cccc(S(=O)(=O)N2CCCCC2)c1)C1CCS(=O)(=O)C1 (stereo not given)	-13%	-23%
O=[N+]([O-])c1cccc(/C=N/NC(=S)Nc2ccccc2)c1	13%	134%[activator]
COc1ccc(N2CC(c3nc(-c4ccccc4C)no3)CC2=O)cc1Cl (stereo not given)	14%	-4%
COc1cc(OC)cc(C(=O)Nc2ccc3oc(=O)ccc3c2)c1	-1%	35%[activator]
Cc1cccc(NC(=O)C(C#N)C(=O)c2ccccc2Cl)c1 (stereo not given)	82%[activator]	51%[activator]
CCCN(CC(F)(F)F)C(=O)CNC(=O)Cc1ccccc1	12%	-6%
CCc1c(C)sc(NC(=O)c2cc(-c3cccc(Cl)c3)on2)c1C#N	0%	1%
Cc1cc(C(=O)OCC(=O)Nc2ccc(C)c(C)c2)c2ccccc2n1	-12%	-14%
CCOc1ccc(NC(=O)CSc2ncc3c(n2)-c2ccccc2N(C)S3(=O)=O)cc1	-16%	-14%
O=C1NC(C(=O)O)=CC(c2ccc(F)cc2F)N1 (stereo not given)	-12%	-3%
Cc1ccccc1OCC(=O)Nc1ccc(O)c(-c2nc3ccccc3o2)c1	-5%	3%
CCCCNC(=S)NC1CCC(NC(=S)NCCCC)CC1 (stereo not given)	-6%	0%
Cc1cccc(C)c1OCc1nc2c3cnn(-c4ccccc4F)c3ncn2n1	0%	86%[activator]
COc1cc(OC)c(C2Nc3ccccc3-c3nnc(SCc4ccccc4)nc3O2)cc1OC (stereo not given)	-9%	19%
CCN(C(=O)C1CCN(S(=O)(=O)c2ccc3c(c2)CCCN3C(=O)C2CCC2)CC1)c1cccc(C)c1	7%	3%
Cc1cc(C(=O)COC(=O)c2nccnc2N)c(C)n1CCc1ccccc1	-16%	0%
COc1ccc(OCC(=O)NCC(c2ccc(C)cc2)N2CCCC2)cc1 (stereo not given)	-9%	-5%
CCCN(CCC)CCNC(=O)Cn1c(C)c(C(=O)OCC)c(C)c1-c1ccccc1	-12%	-4%
COc1cc(-c2c(NC(=O)c3cccs3)oc3ccc(Cl)cc3c2=O)cc(OC)c1OC	-25%	-17%
Cc1cccc(NC(=O)CCc2nc(C(C)(C)C)no2)n1	-12%	-7%
O=C(NNC(=O)C1CCCCC1)c1ccc(Cl)c(Cl)c1	62%[activator]	188%[activator]
N#Cc1nc(Cc2cccc3ccccc23)oc1N1CCCCC1	-3%	16%
CCN(CC)C(=S)SCc1ccc(-c2csnn2)cc1	103%[activator]	27%
CCOC(=O)c1cccnc1	-10%	-16%[11.5 µM]
CN(C)c1cccc(C(=O)Nc2nc3ccc(S(=O)(=O)N4CCCC4)cc3s2)c1	37%[activator]	-18%

4 entries drawn at random from the list so far, as already listed:
canonical_smiles	2A Renilla	StopGo FLuc
Cc1cccc(NC(=O)CCc2nc(C(C)(C)C)no2)n1	-12%	-7%
Cc1cc(C(=O)COC(=O)c2nccnc2N)c(C)n1CCc1ccccc1	-16%	0%
CCCN(CCC)CCNC(=O)Cn1c(C)c(C(=O)OCC)c(C)c1-c1ccccc1	-12%	-4%
Cc1cccc(C)c1OCc1nc2c3cnn(-c4ccccc4F)c3ncn2n1	0%	86%[activator]

Next part:
canonical_smiles	2A Renilla	StopGo FLuc
Cc1ccc(Cl)cc1NC(=O)c1nc2ccccc2nc1N1CCCC1	-7%	-2%
CCN(CC)CCOC(=O)c1ccc(NC(=O)Cn2ncc3c([nH]c4ccc(C)cc43)c2=O)cc1	-14%	-17%
Cc1ccc(COC(=O)Cn2cnc3c2c(=O)n(C)c(=O)n3C)cc1	-15%	-14%
COc1cccc(-c2ccc3c(N)c(C(=O)c4ccc(F)cc4)sc3n2)c1	-2%	48%[activator]
CCOc1cc(C(c2c(C)[nH][nH]c2=O)c2c(C)[nH][nH]c2=O)ccc1OCc1ccc(F)cc1	?	?
CCOC(=O)N1CCN(Cc2nc3cc(NC(=O)CC(C)C)ccc3n2C(C)C)CC1	23%	39%[activator]
CCOC(=O)c1cnc2c(ccc3ccccc32)c1Nc1ccc(Cl)cc1	-12%	5%
CC(Oc1ccc(F)cc1)C(=O)N1CCN(c2nccs2)CC1 (stereo not given)	-1%	3%
O=C(Nc1cccc(-c2nc3cc(Cl)ccc3o2)c1)c1ccccc1	-1%	48%[activator]
CC(NC(=O)c1cc2ccccc2oc1=O)c1ccc(C(F)(F)F)cc1 (stereo not given)	-9%	?
COc1ccc2c(c1)c(C(C)=O)c(C)n2Cc1ccccc1	?	20µM*
Cc1cc(C)nc(Nc2ncc(O)n2-c2ccc(C)c(Cl)c2)n1	-2%	15%
COc1ccc(NC(=O)C2CCN(c3nc4ccccc4nc3C(F)(F)F)CC2)cc1	12%	-1%
CC(C)NC(=O)NC(=O)COC(=O)c1cc(-c2cccs2)nc2ccccc12	14%	31%[activator]
O=C(NCc1ccc(F)cc1)c1ccc(Nc2ncc(-c3cccc(F)c3)cn2)cc1	-4%	-33%
O=C(c1ccccc1)N1CCN(Cc2c[nH]c3ccccc23)CC1	-17%	-11%
CC(=O)Nc1ccc(NC(=O)CCc2nc3cccnc3n2Cc2cccs2)cc1	-10%	4%
CCOC(=O)c1ccc(NC(=O)CC(=O)Nc2ccc3nc4n(c(=O)c3c2)CCCCC4)cc1	-6%	23%

Rows were taken by chance; about 0.55% have a hit in one of these screens.
